Screens (PubChem BioAssay)
Yeast UUG start – yeast start codon fidelity modulation; S. cerevisiae UUG-firefly luciferase reporter, luminescence/redox ratio; 350,000 compounds, 0.13% hits; activity score, % at 18.7 µM;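 active means replicate mean at a twofold rise or more, about +100% in these data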;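 further: firefly luciferase made from a UUG start codon reports start codon fidelity; reporter light over untreated wells divided by growth signal over untreated wells; some hits fall short of that in this replicate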
eIF4H FP inh – inhibitors of RNA binding by human eIF4H. eIF4H fluorescence polarization binding assay. inhibition, % at 35 µM. 290,000 compounds, 0.94% hits. AID 2012;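 active means 50% or more with normal probe brightness, or confirmed in later tests; inconclusive means above 50% with abnormal brightness, or retests that disagree; inactive means below 50% or failed in later tests; about a fifth of its hits are not listed in these tables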;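 further: calls also rest on retests at 20 µM and on dose response follow-up; 0% = protein and probe with vehicle and 100% = probe without protein; strong numbers were not always called active; many hits fall short of the cut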
MT1-MMP act inh – MT1-MMP (human) activation inhibition. P50281. HT1080 RFP-PRO-GFP cells, GFP/RFP ratio fluorescence, overnight; percent of plate control window, DMSO zero. GFP/RFP ratio change, % at 20 µM. 360,000 compounds, 0.061% hits;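 active means GFP/RFP ratio change of at least 30% with cell ATP level not reduced by more than half and red fluorescence within 50% of control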; further: strong numbers were not always called active
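Assay system: HT1080 RFP-PRO-GFP cells | Dosing: 20 µM single dose, 1% DMSO | Incubation: Cells overnight before dosing, compound overnight, 37 °C, 5% CO2 | Evaluation: GFP/RFP fluorescence ratio | Control set: DMSO-only wells and HT1080 RFP-L50D-GFP cell wells as references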
Env fusion inh – HIV envelope-mediated fusion inhibition; inhibition, % at 12.3 µM; HeLa-JRFL Env/CEM21 cell fusion, luciferase; 360,000 compounds, 1.1% hits; AID 651610;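 active means mean replicate inhibition score of at least 50 and every replicate individually at or above 50; inconclusive means only one of the two criteria met; inactive means mean below 50 and not all replicates reaching 50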;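 further: 0% = plate neutral controls and 100% = maraviroc near 300 nM; one replicate is shown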
PABP polyA inh – blocks human PABP binding to poly(A) RNA; fluorescence polarization; P11940; 290,000 compounds, 1% hits; inhibition, % at 35 µM;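 active means 50% or more with normal probe brightness, or confirmed in later tests; inconclusive means above 50% with abnormal brightness, or retests that disagree; inactive means below 50% or failed in later tests; about a fifth of its hits are not listed in these tables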;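 further: calls also rest on retests at 20 µM and on dose response follow-up; controls were probe without protein and protein plus probe with vehicle; some compounds called inactive have numbers as strong as hits; many hits fall short of the cut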
Target sequence (P11940 whole entry, looked up): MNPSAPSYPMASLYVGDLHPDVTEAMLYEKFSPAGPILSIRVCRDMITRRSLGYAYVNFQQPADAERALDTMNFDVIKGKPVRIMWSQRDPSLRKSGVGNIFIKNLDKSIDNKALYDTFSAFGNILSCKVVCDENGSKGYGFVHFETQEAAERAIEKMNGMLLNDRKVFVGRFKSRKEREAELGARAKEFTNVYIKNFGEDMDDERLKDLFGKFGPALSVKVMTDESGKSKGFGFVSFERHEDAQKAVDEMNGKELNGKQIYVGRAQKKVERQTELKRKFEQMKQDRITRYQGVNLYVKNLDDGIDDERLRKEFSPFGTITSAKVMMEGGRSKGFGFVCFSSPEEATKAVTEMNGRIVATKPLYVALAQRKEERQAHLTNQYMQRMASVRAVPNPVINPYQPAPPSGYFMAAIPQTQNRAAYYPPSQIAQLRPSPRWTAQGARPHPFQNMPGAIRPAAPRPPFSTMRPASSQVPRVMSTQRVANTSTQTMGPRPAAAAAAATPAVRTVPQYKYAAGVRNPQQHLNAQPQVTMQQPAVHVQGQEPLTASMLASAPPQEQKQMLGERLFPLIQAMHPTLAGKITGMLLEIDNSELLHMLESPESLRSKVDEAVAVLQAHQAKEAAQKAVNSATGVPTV
CSC inhib – blocks cancer stem cells; inhibition, % at 7.5 µM; 300,000 compounds, 1.1% hits; AID 2717; cancer stem cell-like cells viability, luminescence;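 active means mean at 75% or more and at least half the replicates too; inconclusive means mean and replicates disagree; tested in HMLE shEcad cells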;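 further: 0% = median of negative and 100% = median of positive control wells; the first replicate is given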
Rce1 inhib – inhibitors of yeast Ras-converting enzyme; yeast membranes, quenched prenylated peptide cleavage fluorescence; calls only; 290,000 compounds, 0.27% hits; AID 2563;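 active means fall in fluorescence gain of 50% or more versus controls, with final raw signal at or below 3038400; inconclusive means same 50% fall but final raw signal above 3038400; inactive means fall in fluorescence gain under 50%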;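 further: plate controls were neutral control wells for no effect and wells lacking membranes for full effect; tested at 10 µM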
Target sequence (Q03530 whole entry, looked up): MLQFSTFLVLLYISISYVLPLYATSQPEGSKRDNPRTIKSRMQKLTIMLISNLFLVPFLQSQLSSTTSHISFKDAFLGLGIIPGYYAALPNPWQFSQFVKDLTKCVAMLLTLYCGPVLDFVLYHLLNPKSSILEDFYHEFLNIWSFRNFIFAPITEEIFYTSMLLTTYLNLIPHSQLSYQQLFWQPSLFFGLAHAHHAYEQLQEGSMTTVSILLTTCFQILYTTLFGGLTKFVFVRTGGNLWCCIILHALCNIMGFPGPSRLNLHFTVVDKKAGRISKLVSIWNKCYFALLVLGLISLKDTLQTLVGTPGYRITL
eIF4H FP inh retest – second read-out of eIF4H FP inh, no call of its own (marks repeat the call); inhibition, %; compound at 20 µM; confirmation average;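 mean of two retest wells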
PABP polyA inh retest – further read-out of PABP polyA inh, marked with its call; inhibition, %; compound at 20 µM; confirmation repeats;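 mean of two retest wells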
MT1-MMP act inh RFP – also measured in MT1-MMP act inh; calls as there; RFP signal change, %; measured here: RFP expression control read;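 0 = vehicle wells; hits needed this value within 50% of zero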
An asterisk follows results filed as active; i = inactive; ? = inconclusive; / = no result given; [ ] = remark or other dose.

SMILES	Yeast UUG start	eIF4H FP inh	MT1-MMP act inh	MT1-MMP act inh RFP	Env fusion inh	PABP polyA inh	CSC inhib	Rce1 inhib	others
O=C(NCCc1c[nH]c2ccccc12)C(F)(F)F	-5.9	-4.1	-2.2	2.8	/	13.4	0.9	i
CCN1CNC(=S)N(c2ccccc2C)C1	-11.7	-4.5	3.5	-0.2	-6.5	9.7	-3.7	i
CCCC(c1nnnn1CC1CCCO1)N1CCN(c2nc3ccccc3s2)CC1 (stereo not given)	-14.7	-8.7	1.2	-3.8	/	-2.6	/	i
CC(=O)N=Nc1[nH]c(N)c2ccccc12	-16.1	-1.5	1.9	5.6	-10.8	?	/	i
CCN(CCN(C)C)C(=O)c1ccc2nc(C)c(N(C)C(=O)CCc3ccccc3)n2c1	-9.8	/	-6.1	4.5	17.2	/	/	/
COC(=O)C1(Cc2ccc(O)c(CC3OC3(C)C)c2)OC(=O)C(O)=C1c1ccc(O)cc1 (stereo not given)	-0.5	22.4	4.3	4.1	/	23.3	5.4	i
COC(=O)C1=C(C)NC(C)=C(C(=O)OC)C1C(=O)OCC(=O)c1ccc(F)cc1	/	-0.9	0.9	2.1	8.3	-0.7	-12.8	i
Cc1ccc(-n2cc(CNCCN3CCOC3=O)c(-c3ccc(F)cc3)n2)cc1	1.2	-2.8	-2.3	2.3	1.0	3.0	-4.3	i
COC(=O)C1=C(C)NC(=O)C1(Nc1ccc(Cl)cn1)C(F)(F)F (stereo not given)	-9.2	1.2	-2.3	-0.4	-6.3	-2.0	/	i
CCOc1cc(/C=C/C(=O)c2ccc(C)cc2)ccc1OCC(=O)N(C)C	-2.9	-3.4	-1.8	-6.3	5.9	-2.9	65.7	i
COc1ccc([C@@H]2C[C@H]3[C@@H](CN2S(=O)(=O)c2ccccc2)C(=O)C[C@@H](c2ccccc2F)N3S(=O)(=O)c2ccc(C)cc2)cc1	-7.6	/	-1.1	-0.8	-55.2	/	/	/
CC(=O)Nc1cccc(-c2ccnc3c2CC(C(=O)Nc2cccc(NS(C)(=O)=O)c2)O3)c1 (stereo not given)	1.4	/	-0.9	-2.6	6.2	/	/	/
CSc1ccccc1NC(=O)c1c(C)noc1C	-0.6	1.2	-1.8	-1.7	-73.7	6.9	/	i
CSCCC(NC(=O)c1ccccc1Cl)C(=O)OCC(=O)N1CCCC1=O (stereo not given)	-0.3	/	-1.4	3.7	-3.0	/	-2.1	i
O=c1[nH]c(=O)c2nnc(N/N=C/c3ccccc3F)nc2[nH]1	/	-3.3	0.1	8.8	2.7	4.1	-15.1	i
CC1CCN(CCC(=O)Nc2ccc3c(c2)CCC3)CC1	9.3	-1.8	11.3	3.9	/	-0.9	/	/
O=C(CCCN1C(=O)c2cccnc2C1=O)Nc1ccc(Br)cc1	-5.6	1.0	8.5	4.7	-2.2	-7.3	-12.0	i
O=C(COc1ccc(S(=O)(=O)NCc2ccccc2)cc1)NCc1cccnc1	-21.5	2.6	5.1	-0.3	-1.7	12.3	/	i
O=C(c1ccc(Cl)c(S(=O)(=O)N2CCCCCC2)c1)N1CCN(c2ccccc2O)CC1	/	-6.4	-3.1	-14.3	14.0	-12.7	-3.2	i
O=C(c1ccc([N+](=O)[O-])cc1)N1CCc2ccccc21	/	/	3.8	-1.2	0.7	/	-4.3	i
CCc1nnc(SCC(=O)N2CCCc3ccccc32)nc1CC	/	4.9	-0.3	-0.4	-14.0	2.5	-8.3	i
FC(F)(F)c1nc(-c2cccnc2)ncc1-c1nnnn1-c1ccccc1	-6.3	3.5	3.1	-2.0	-0.4	0.4	-5.9	i
COc1c(Cl)cc(-c2noc(C)c2C(=O)NCc2ccccc2)cc1Cl	-0.3	-3.5	-0.3	-4.8	17.4	2.0	-7.7	i
COc1ccc(C(=O)Oc2ccc(/C=N/NC(=O)Cc3ccc([N+](=O)[O-])cc3)cc2)cc1	/	5.3	-1.3	3.9	6.5	-0.3	/	i
CCCCN(CC)S(=O)(=O)c1ccc(C(=O)Nc2nnc(-c3ccccc3Cl)o2)cc1	-29.0	20.4	-1.9	-8.2	/	2.6	-8.8	i
CC[C@@H]1C=C(C(=O)O)[C@H](c2ccc(F)cc2)N1S(=O)(=O)c1ccc(C)cc1	-19.6	/	2.1	6.3	25.2	/	/	/
c1coc(Cn2nnnc2CN2CCN(C3CCCCC3)CC2)c1	-9.0	5.2	9.6	-1.6	-14.4	9.7	9.1	i
O=C(NCc1ccccn1)Nc1ccccc1F	-11.4	-3.3	-0.5	3.7	-2.8	-11.9	2.8	i
O=C(NCCN1C(=O)S/C(=C\c2ccc(F)cc2)C1=O)c1cccc(S(=O)(=O)N2CCOCC2)c1	10.0	8.1	-3.8	-8.6	30.7	6.7	1.6	i
CCOc1ccc(CN2CCC(=O)NC2=O)cc1	-3.8	5.2	0.2	3.5	-23.7	0.0	/	i

3 entries already listed, arranged by molar mass, rising:
SMILES	Yeast UUG start	eIF4H FP inh	MT1-MMP act inh	MT1-MMP act inh RFP	Env fusion inh	PABP polyA inh	CSC inhib	Rce1 inhib	others
O=C(NCc1ccccn1)Nc1ccccc1F	-11.4	-3.3	-0.5	3.7	-2.8	-11.9	2.8	i
O=C(c1ccc([N+](=O)[O-])cc1)N1CCc2ccccc21	/	/	3.8	-1.2	0.7	/	-4.3	i
O=C(NCCN1C(=O)S/C(=C\c2ccc(F)cc2)C1=O)c1cccc(S(=O)(=O)N2CCOCC2)c1	10.0	8.1	-3.8	-8.6	30.7	6.7	1.6	i

Following part.
SMILES	Yeast UUG start	eIF4H FP inh	MT1-MMP act inh	MT1-MMP act inh RFP	Env fusion inh	PABP polyA inh	CSC inhib	Rce1 inhib	others
CN(C)CCCNCC(=O)Nc1ccccc1N1CCOCC1	-37.6	3.7	0.5	9.2	-47.1	20.1	-7.0	i
Cc1[nH]nc2c1C(Cc1ccccc1)C(C#N)=C(N)O2 (stereo not given)	-12.8	0.5	-2.5	2.5	-33.0	5.8	-1.8	i
CN(CCN(C)C(C)(C)C)C(=O)C(c1ccccc1)c1ccccc1	-0.2	-6.0	0.9	-0.6	-0.7	6.3	-3.7	i
C[C@@H]1CN([C@H](C)CO)C(=O)CCCn2cc(nn2)CO[C@H]1CN(C)S(=O)(=O)c1ccc(Oc2ccccc2)nc1	8.8	/	-5.1	-0.2	4.4[16.7 µM]	/	/	/
C[C@H](NC(=O)[C@H]1N2C(=O)c3ccccc3C2SC1(C)C)C(=O)NCC1CCCO1 (stereo not given in full)	-13.0	22.9	0.6	4.1	-17.3	32.6	-5.6	i
Cc1noc(C)c1S(=O)(=O)N1CCC(C(=O)NCCC2=CCCCC2)CC1	-22.1	13.7	6.0	-1.3	-1.1	3.9	-3.4	/
CCCSc1nc2c(c(=O)[nH]c(=O)n2C)n1C	-9.9	4.4	-16.3	-2.4	-9.2	1.0	-9.3	i
CCCCn1c(N)c(N(CCC(C)C)C(=O)COC(=O)c2cccnc2SC)c(=O)[nH]c1=O	-1.8	/	-3.2	-1.8	-7.0	/	/	/
CCn1nc(C(C)C)cc1C(=O)N1CCCC(CO)(Cc2ccc(F)cc2F)C1 (stereo not given)	3.6	0.5	1.0	-7.7	14.1	6.2	11.3	i
O=C(CC1C(=O)NCCN1CCCc1ccccc1)NCCc1ccccc1Cl (stereo not given)	-14.3	10.4	-4.9	-3.3	9.8	-7.0	16.3	i
Cc1cc(=O)oc2cc(OCC(=O)NCCCN3CCCC3=O)c(Cl)cc12	-0.3	-4.1	1.1	5.5	-8.8	-5.2	12.0	i
CN(C)CCn1c(=S)[nH]c2ncccc2c1=O	-12.6	10.5	1.4	0.3	7.7	-1.5	0.4	i
COc1cccc(C(=O)n2c(SC)nc3cc4c(cc32)OCCO4)c1	-12.6	-13.4	-3.8	1.0	/	-2.5	0.8	/
Cc1cc2c3c(c1C)C(=O)C(=O)N3C(C)(C)CC2C (stereo not given)	-7.8	-2.2	0.5	3.6	-1.7	10.4	-3.5	/
CC(c1ccccc1)C1CC(=O)N(C2CCCCC2)C1=O (stereo not given)	5.9	0.1	4.8	1.7	-2.6	1.7	0.1	i
COc1ccc(-c2nnc(SCC(=O)c3[nH]c(C)c(C(C)=O)c3C)o2)cc1	-14.3	3.2	-17.7	-23.1	/	-0.8	17.1	/
COCCn1nnnc1C(c1ccc(OC)cc1OC)N1CCN(c2ccccc2F)CC1 (stereo not given)	-7.6	3.4	-4.8	3.8	/	12.0	14.5	i
CCCCOCCCNC(=O)N[C@H](C(=O)OC)C(C)C	25.5	-6.2	0.1	4.5	/	-9.4	-11.6	i
Cn1c(=O)c2c(nc(SC3C(=O)CC(C)(C)CC3=O)n2C)n(C)c1=O	-8.5	4.8	5.1	0.3	-6.6	-0.6	-13.7	i
Cc1cc(C)c(C(=O)COC(=O)CCn2c(C)csc2=O)cc1C	/	/	-2.5	-0.9	/	/	8.2	i
Cc1cccnc1NC(=O)CNC(=O)C12CC3CC(CC(Cl)(C3)C1)C2	/	/	1.0	1.8	-261.7	/	6.3	i
COc1ccc(OC)c(NC(=O)C2CCC(CNc3c(N4CCC(C)CC4)c(=O)c3=O)CC2)c1 (stereo not given)	-20.9	7.4	12.3	7.2	28.3	-2.6	-14.3	i
Cc1c(C(=O)NC(C)CN2CCCCC2)oc2ccccc12 (stereo not given)	-8.4	5.8	-7.5	-2.1	-0.3	7.0	-4.9	i
S=C(NCc1cccs1)Nc1cc(Cl)cc(Cl)c1	/	-5.4	-0.9	-9.3	5.9	-2.8	60.8	i
O=C(c1ccc(OC2CCN(CCc3ccccc3)CC2)cc1)N1CCC[C@H]1CO	1.4	39.9	-3.3	0.8	-15.0	6.2	/	i
COC(=O)c1c(C)[nH]c(C)c1-c1ccccc1	-14.0	-4.8	-11.6	-8.1	/	5.0	-11.0	i
O=C(CN(Cc1cccs1)C(=O)CNS(=O)(=O)c1ccc(F)cc1)NCC1CCCO1 (stereo not given)	/	-8.5	2.4	3.3	-29.7	-15.4	-7.6	i
NS(=O)(=O)c1cccc(NC(=O)COC(=O)CSCc2ccccc2)c1	-7.6	/	0.7	3.9	8.2	/	7.9	/
Cc1ccccc1S(=O)(=O)Nc1nc2ccccc2nc1Cl	8.7	60.1	-2.9	2.3	14.7	6.3	2.6	i	eIF4H FP inh retest=-4.8;PABP polyA inh retest=-1.2
CCOc1cc(NC(=O)C2CC2)c(OCC)cc1NC(=O)c1ccccn1	-3.5	6.0	-1.9	-0.1	/	12.9	-15.7	i
COc1ccc(NC(=O)C(Sc2nnc3ccccn23)c2ccccc2)cc1Cl (stereo not given)	/	2.7	0.7	-2.9	-24.8	7.6	-11.0	i
CCOC(=O)c1[nH]c2cc(OC)c(OC)cc2c1NC(=O)c1nonc1C	/	-8.9	0.4	2.0	18.9	-2.2	-2.5	i
C=CCN1C2=NCCCN2c2ccccc21	-25.9	-1.2	1.7	4.2	-3.9	0.9	-6.1	i
O=C(COC(=O)c1ccc(Br)o1)NCc1ccccc1Cl	-14.0	/	-1.1	0.1	-9.4	/	-3.9	/
COc1ccc(-c2cn(Cc3ccc([N+](=O)[O-])cc3)nn2)cc1	-12.8	-7.3	8.2	-4.7	/	6.2	11.9	i
CCOC(=O)/C(=C\c1cn(C)c2ccccc12)[N+](=O)[O-]	/	-3.1	-4.1	1.8	5.8	-5.7	21.0	i
C=CCOc1ccc(-c2nc3c(c(=O)[nH]c(=O)n3Cc3ccccc3)n2CCCOC)cc1	10.5	-6.7	3.8	1.6	-4.7	4.9	-9.7	i
CCOc1ccc2[nH]c(C)cc(=O)c2c1	-13.5	-5.0	7.9	7.5	6.7	12.5	/	i

A portion of the library; count on the stated rates, not on these rows.
